Bead autofluor: compound fluorescence in toxin protease inhibitor counterscreen; compound autofluorescence counterscreen, microsphere flow cytometry; stronger effect = higher value; fluorescence intensity (no concentration beside the values); 360,000 tested, 3.1% active;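 active = at least 3 SD above the mean of all compounds, about 16000 in these data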;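 note: 100 nL of 1 mM stock went into each well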
RN4220 kill: kills Staphylococcus aureus RN4220; S. aureus RN4220 growth, OD600, 16 h; inhibition, % (no concentration beside the values); AID 1259311; 330,000 tested, 0.33% active;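 active = z-score of -3 or lower and OD600 up to 0.18 on both plates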;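 note: plate controls were untreated cells for no effect and reference antibiotic for full effect; stock transfer was 100 nL into about 80 µL; one replicate is shown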
Mtb hypoxia rep: inhibitors of hypoxia-regulated fluorescent reporter in Mycobacterium tuberculosis; M. tuberculosis hypoxia-regulated fluorescent reporter, fluorescence; 300,000 tested, 0.1% active; fluorescence inhibition, % (concentration not given with the values);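 active = 35 to 45% if threefold the growth effect, above 45% if 1.5-fold the growth effect; inactive = the rest, general growth blockers included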;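 note: wells of about 50 µL received 100 nL stock; 0% = vehicle wells and 100% = reference inhibitor wells; whole bacteria with a GFP reporter of the hypoxia response; strong numbers were not always called active; many hits fall short of the cut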
PrP UTR inh: suppresses PrP 5' UTR mRNA reporter expression. cell-based PrP 5' UTR mRNA reporter, plate reader. inhibition, % (concentration not given with the values). 340,000 tested, 0.35% active;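 active = every replicate at 50% or more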;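 note: 0 = median of the neutral control wells; tested in H4 reporter cells; numbers are from one replicate; inactives centre near -14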
Sa ugtP lethal: compounds lethal to S. aureus RN4220 ugtP deletion mutant; OD600 growth, 16 h; some inactives read as strong as hits; growth inhibition, % (no concentration beside the values); 330,000 tested, 0.54% active; AID 1259309;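 active = z-score under -3 and OD600 up to 0.15 on both plates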;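 note: plate controls were untreated wells for no effect and antibiotic for full effect; wells of about 80 µL received 100 nL stock; the first replicate is given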
BJeLR viability: BJeLR cell viability loss | BJeLR (HRASV12) viability, CellTiter-Glo ATP luminescence, 48 h; reference of the scale not given here | inhibition, % (concentration not given with the values) | 300,000 tested, 0.17% active | AID 1554;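 active = replicate mean above 50%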;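 note: 50 nL library stock added to about 25 µL; numbers are from one replicate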
Mtb hypoxia rep growth: further read-out of Mtb hypoxia rep, marked with its call; growth inhibition, %; measured here: M. tuberculosis growth (absorbance);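 0% = vehicle and 100% = reference antibiotic; read after six days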
* = called active by the depositor; nt = not tested or not shown.

canonical_smiles	Bead autofluor	RN4220 kill	Mtb hypoxia rep	Mtb hypoxia rep growth	PrP UTR inh	Sa ugtP lethal	BJeLR viability
O=C1C2CCCCC2C(=O)N1c1ccc(NC2CCCCC2)c([N+](=O)[O-])c1 (stereo not given)	2381	5.8	14	10	-24	-9	-14
NCCNc1ccc([N+](=O)[O-])cc1	3638	-0.4	5	-4	-17	-2	-2
COc1cccc(NC(=O)COC(=O)c2ccccc2F)c1	10246	3.8	2	7	-13	4	-1
Cc1cnc(NC(=O)c2ccc(Cl)nc2)s1	3401	-4.5	-7	-4	-52	-18	11
O=C(COC(=O)/C=C/c1ccco1)Nc1ncc(C(F)(F)F)cc1Cl	12298	2.0	7	-4	2	-9	-10
COc1ccc(NS(=O)(=O)c2cc(NC(=O)c3ccc(=O)[nH]c3)ccc2C)cc1	3978	1.9	12	-4	-10	3	nt
CCOC(=O)C1(Cc2cccc(OC)c2)CCN(Cc2cccn2-c2ccccn2)CC1	2572	2.9	13	9	-17	3	1
CCOc1ccc(CCNC(=O)CCC(=O)c2cccs2)cc1OCC	5809	4.4	7	10	-15	6	nt
Cc1ccc(Cl)cc1NC(=O)CC1NC2CCCCC2NC1=O (stereo not given)	4164	3.6	16	-3	-13	9	4
Cc1ccc(NC(=O)C2CCN(C(=O)c3cccs3)CC2)c(C)c1	3864	-0.5	-7	0	6	8	-11
CCOc1ccc2nc(SCC(=O)NCc3ccc(OC)cc3)[nH]c2c1	3613	-0.8	2	8	-6	14	1
O=C(Cc1ccccc1)NC1CCN(S(=O)(=O)c2cccc(F)c2)CC1	6210	4.5	5	4	1	13	-6
CC1(C(=O)O)CCC(C(=O)NNC(=O)c2ccccc2O)C1(C)C (stereo not given)	3403	2.9	5	-1	-25	2	1
Cc1cc2c(SCC(=O)N3CCN(c4ccccc4)CC3)ncnc2s1	5977	4.6	8	4	-13	4	-3
CN(C)S(=O)(=O)c1cccc(NC(=S)NC2CCCCC2)c1	4281	5.6	7	-1	-19	2	-18
Cc1nnc(NC(=O)C2c3ccccc3Oc3ccccc32)s1	2668	-6.9	12	-2	-15	-1	11
COCC(=O)N1CCC(Oc2ccc(C(=O)N(C)C(C)c3ccon3)cc2)CC1 (stereo not given)	4729	1.4	-2	-2	-17	-2	7
COc1ccc(N2C(=O)c3ccccc3C2O)cc1 (stereo not given)	3799	-2.0	-4	4	-18	-5	0
CCC1=NN(C(=O)Cc2ccc(OC)c(OC)c2)C(O)(C(F)(F)F)C1 (stereo not given)	2180	5.8	10	2	-20	4	2
CN1CCN(c2ccc(NS(=O)(=O)c3ccc(Cl)cc3)cn2)CC1	4642	8.2	12	-4	-27	7	2
Cc1csc(SCC(=O)Nc2nc(-c3ccccc3)cs2)n1	3076	-2.0	nt	nt	-21	-8	0
O=C(Cn1ccc2ccccc2c1=O)NCCC(=O)Nc1ccc2c(c1)OCCO2	20380*	3.1	2	5	-19	5	7
COc1cccc2[nH]c3c(N4CCCCC4)ncnc3c12	11511	4.6	1	2	-18	-10	8
O=C(COC(=O)c1ccc(Cl)nc1)NC(=O)c1ccccc1	4527	1.1	2	-7	-17	6	-1
CC(=O)Nc1cccc(NC(=O)CSc2nnnn2C)c1	nt	0.9	2	6	nt	3	-5
Cc1nnc(SCC(=O)NC2CCCCC2)n(N)c1=O	11100	4.7	6	7	-21	5	-20
Cc1ccc2cn[nH]c2c1NC(N)=S	2410	3.4	20	1	2	5	5
COc1cc(NC(=O)CSc2ncccc2C(=O)OC(C)C)cc(OC)c1	23173*	-4.3	-1	7	16	-3	4
O=C(Nc1ccc(C(F)(F)F)cn1)Nc1cccs1	5805	4.5	-9	-2	-54	-9	-2
CC12CCC(CC1=NO)C2(C)CBr (stereo not given)	nt	3.9	14	1	nt	1	nt
COc1ccc2nc(NC(=O)CCc3nc(-c4ccccc4F)no3)sc2c1	2431	2.6	nt	nt	-32	0	-9
Cc1ccc(S(=O)(=O)Nc2ccc(-c3nnc(SCC#N)n3C)cc2)cc1	3263	-0.9	-8	-2	-20	-6	0
COc1ccc2cc(C(=O)Nc3c(C)n(C)n(-c4ccccc4)c3=O)sc(=O)c2c1OC	5072	-1.2	-4	-2	16	-10	2
CCCCOc1ccc(C(=O)N/N=C/c2cn[nH]c2-c2ccc(OC)c(OC)c2)cc1	7234	nt	nt	nt	-14	nt	7
Cc1ccc(S(=O)(=O)/N=C(\CCl)N2CCOCC2)cc1	1968	nt	nt	nt	-9	nt	-4
CN1CCN(c2nc3c(c(=O)[nH]c(=O)n3C)n2Cc2ccc(Cl)cc2)CC1	3420	1.9	1	-5	-7	13	-5
Cc1cnc(C(=O)OCC(=O)c2ccccc2)cn1	4531	-2.3	5	3	-26	11	11
COC(=O)C1=C(c2cccc(C#N)c2)CC2CCC1N2C(=O)NCc1ccc(F)cc1 (stereo not given)	nt	3.7	4	5	nt	-7	nt
CCN(CC(=O)Nc1c(F)cccc1F)C(=O)/C=C/c1ccc2c(c1)OCO2	nt	-0.2	-9	-5	-12	2	0
CCN(CC)C(=O)CSc1nc(-c2ccc(C)cc2)nc2c1COC(C)(C)C2	9410	0.5	-9	7	-23	3	2
COc1ccc(N(CC(=O)NCc2cccnc2)S(=O)(=O)c2ccc(C)c([N+](=O)[O-])c2)cc1	2546	5.2	2	3	-13	4	-2
COC(=O)C1CCN(C(=O)C2CCN(C(=O)[C@@H](NS(=O)(=O)c3ccc(C)cc3)C(C)C)CC2)CC1	5595	0.3	nt	nt	-3	1	-8
CCN1CCN(c2c(Cl)cccc2NC(=O)c2ccc([N+](=O)[O-])cc2)CC1	4414	nt	nt	nt	-34	nt	-19
CC(=O)c1ccc(N(C(=O)c2ccco2)C(C(=O)NC2CCCC2)c2ccc(N3CCOCC3)cc2)cc1 (stereo not given)	2880	5.7	2	5	-17	3	-1
Cc1ccc(-n2c(SCC(=O)NC3CCS(=O)(=O)C3)nc3ccccc3c2=O)cc1 (stereo not given)	4257	-0.6	-5	-8	-26	0	-4
CC(=O)Nc1ccc(S(=O)(=O)N(C)c2ccc(OCC(=O)OCC(=O)N3CCCCC3)cc2)cc1	4600	1.9	2	2	-29	-1	19
COc1ccc(N2C(=O)[C@@H]3[C@H](C2=O)[C@H]2c4ccccc4C=CN2[C@@H]3C(=O)Nc2ccccc2)cc1	5821	-1.2	6	8	-30	-3	nt
Cc1c(C)c2cc(Cl)c(OCC(=O)N3CCN(c4ccc(F)cc4)CC3)cc2oc1=O	5200	4.0	3	1	-13	8	1
Cc1cccnc1Sc1c([N+](=O)[O-])ncn1C	8836	1.0	-5	0	-39	-2	0
CC1(C)CC(=O)C(C=NCCc2ccc(S(N)(=O)=O)cc2)=C(O)C1	23978*	0.8	11	9	-24	0	-1
CC1S/C(=C(\C#N)C(N)=O)N(c2ccc(F)cc2)C1=O (stereo not given)	7947	-3.4	7	4	-14	-2	-3
O=C1C(=Cc2ccco2)CCC1=Cc1ccco1	2958	5.0	17	12	-8	7	nt
CCOc1ncccc1C(=O)N(C)CC(=O)Nc1ccccc1SC	2408	-3.0	-3	4	-1	7	11
Cc1ccc(SC(=O)COc2ccc(C)c(C)c2)cc1	3471	2.1	1	3	-16	6	-1
O=C(NCc1ccc2c(c1)OCO2)C(=O)NCC1OCCN1S(=O)(=O)c1ccc(F)cc1 (stereo not given)	5889	-0.6	3	6	2	-1	-2
CC(=O)c1cc2c(cc1NC(=O)CCc1ccccc1)OCO2	2722	4.6	6	-1	-2	0	0
CSc1ccc(/C=C(\C#N)C(=O)Nc2cccc(C)c2)cc1	11131	-1.2	10	14	-25	-3	-8
COC(=O)C1=C(c2cc3ccccc3o2)CC2CCC1N2C(=O)NCc1ccco1 (stereo not given)	nt	1.5	10	15	nt	-5	nt
CCCNC(=O)c1ccc(N2CCC3(CC2)CC(c2ccccc2)=NO3)c(NC(=O)c2cccc(OC)c2)c1	2961	nt	nt	nt	-1	nt	-19
Cn1c(=O)[nH]c(=O)c2c1nc(CN1CCN(c3cccc(Cl)c3)CC1)n2CCN1CCOCC1	20987*	-3.0	-8	-13	5	1	-1

Next part
canonical_smiles	Bead autofluor	RN4220 kill	Mtb hypoxia rep	Mtb hypoxia rep growth	PrP UTR inh	Sa ugtP lethal	BJeLR viability
O=C1NC(=O)C(=Cc2ccc(N3CCN(C(=O)c4ccccc4)CC3)c([N+](=O)[O-])c2)C(=O)N1	2112	0.3	9	3	-24	10	-2
O=C(Cc1ccccc1)Nc1nnc(-c2ccccc2)o1	5684	-0.5	9	-1	-2	7	0
CCCCCOc1ccc(C(=O)Nc2ccc(S(=O)(=O)Nc3cc(C)on3)cc2)cc1	5623	12	2	-15	-3	20	0
C/C(=N\NC(=O)c1ccc(CN2CCOCC2)cc1)c1ccc([N+](=O)[O-])cc1	2302	nt	nt	nt	-12	nt	-20
Cc1ccc(N=Nc2c(C)[nH]n(C(N)=S)c2=O)cc1	4695	1.6	18	7	-43	2	-1
CC(C)NC(=O)c1ccccc1N(Cc1ccccc1)S(C)(=O)=O	4386	-4.1	-5	-1	-7	-10	-2
COCCCNC(=O)c1cn(CCOC)c(=O)c2c1c1ccccc1n2C	3800	-0.2	3	-1	-16	3	4
O=C(Nc1nc(-c2cccs2)c(-c2cccs2)s1)C1CCCC1	2200	-6.0	15	6	-17	-15	-2
CCCOc1ccc(C(=O)NNC(=S)NC(C)=O)cc1	nt	60	-3	8	5	29	5
CC(C1CC1)N(Cc1ccccc1)C(=O)NC(=O)c1ccccc1 (stereo not given)	5850	5.3	7	10	-6	5	-6
Cc1nc(-c2ccc(F)cc2)c(CC(=O)N2CCN(S(=O)(=O)c3cccc(Cl)c3)CC2)s1	5234	4.3	9	8	-23	-3	4
CSc1ccc(C#N)cc1NC(=O)c1ccc(Cl)cc1	2091	3.4	nt	nt	-1	-7	-13
COc1ccc(/C(=N/Nc2ncnc3ccccc23)C(=O)O)cc1	3142	nt	nt	nt	-4	nt	4
COc1cc(/C=N/NC(=O)CC2(C)OCCCO2)ccc1OCc1ccccc1	2433	nt	nt	nt	-3	nt	4
CCOC(=O)c1c(NC(=S)Nc2cccnc2)sc(C)c1C	4508	3.1	9	2	-11	6	7
COc1cc(OC)c(OC)cc1CN1CCN(C(=O)CC(C)C)CC1	3906	-1.4	1	-1	-59	7	-12
COc1ccccc1NC(=O)c1nn(C)cc1Br	4453	1.7	nt	nt	-12	5	-5
Cc1cc(C)c(O)c(-c2cc(C(=O)NCCc3ccc(S(N)(=O)=O)cc3)[nH]n2)c1	4325	1.6	0	-2	-8	8	-3
COC(=O)c1sccc1NC(=S)Nc1cccc(F)c1	6150	1.0	11	18	-17	2	-1
CCn1c(-c2ccoc2C)n[nH]c1=S	10708	2.5	4	4	-17	0	-9
O=C(C[N+]1(CC#Cc2ccccc2)CCCCC1)c1ccc(Cl)cc1	4583	11	9	1	0	1	1
CC1(C)CC(N=Cc2c(O)n(Cc3ccc4c(c3)OCO4)c(=O)c3ccccc23)CC(C)(C)N1	4397	-4.7	9	12	-15	21	7
COC(=O)c1ccccc1NC(=O)Cn1cnc2cc(C)c(C)cc21	11605	0.9	-11	1	1	-11	2
COc1ccc(NC(=O)c2cc3c(CO)cnc(C)c3oc2=Nc2cccc(F)c2)c(OC)c1	3338	5.5	-6	0	1	-10	10
C=CCn1c(SCC(=O)NC23CC4CC(CC(C4)C2)C3)nc(O)cc1=O	3080	-8.6	2	-7	-4	-4	-5
CC(Sc1nnc(N)s1)C(=O)Nc1ccc(N2CCOCC2)cc1 (stereo not given)	2079	3.2	nt	nt	-2	-2	-1
